NTR1 agonist = agonists of NTR1, primary screen, imaging, U2OS cells, beta-arrestin-GFP, high content (AID 493036) | hit rate 0.17% among 330,000 | NTR1-U2OS beta-arrestin-GFP spot imaging, agonist mode | activation, % at 20 µM | P30989;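 active means activation at or above 40% of the spot to cytoplasm intensity ratio, with at least 20 cells analyzed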;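 further: 0% = DMSO without peptide and 100% = 100 nM NTR1 peptide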
Target sequence (P30989 whole entry, looked up): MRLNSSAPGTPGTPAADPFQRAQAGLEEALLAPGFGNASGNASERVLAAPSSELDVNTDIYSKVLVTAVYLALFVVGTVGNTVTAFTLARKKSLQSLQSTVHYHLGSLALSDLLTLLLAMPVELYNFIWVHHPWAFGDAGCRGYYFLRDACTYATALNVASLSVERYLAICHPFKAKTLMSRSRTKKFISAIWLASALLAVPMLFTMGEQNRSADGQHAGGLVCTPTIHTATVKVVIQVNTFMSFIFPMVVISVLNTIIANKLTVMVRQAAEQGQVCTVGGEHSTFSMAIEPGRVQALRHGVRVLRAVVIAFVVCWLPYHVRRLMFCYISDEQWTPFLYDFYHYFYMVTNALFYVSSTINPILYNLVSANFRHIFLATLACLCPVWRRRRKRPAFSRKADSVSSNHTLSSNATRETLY
West Nile virus CPE = West Nile virus antiviral activity, cell-based, CPE readout (AID 1621) | one-dose CPE inhibition, % at 10 µM; IC50 in µM for titrated hits | West Nile virus-infected cells, CPE inhibition; higher % means a stronger effect | hit rate 0.02% among 290,000; in the data active means a potency from the dose series; further: strong numbers were not always called active
KOR agonists = kappa opioid receptor activators – cell-based, luminescence, uHTS, primary screen (AID 1777) | KOR beta-arrestin recruitment, luminescence; higher % means a stronger effect | activation, % at 10 µM; hits with a dose series show EC50 in µM | hit rate 0.02% among 280,000; in the data active means activation above about 50%, passing the limit was not always enough; further: a part of the inactive calls stands beside numbers as strong as those of hits
PhoP inhibition = PhoP-dependent GFP reporter repression – Salmonella Typhimurium, primary screen (AID 1863). S. Typhimurium PhoP-regulated promoter GFP reporter, 4 h; higher % means a stronger effect. one-dose inhibition, % at 50 µM; IC50 in µM for titrated hits. hit rate 0.16% among 300,000;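 active means inhibition over 29.93%, a cutoff 3 SD above the screen mean, later confirmed by dose response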;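 further: 0% = low Mg2+ inducing control and 100% = high Mg2+ repressing control; strong numbers were not always called active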
GPR55 activation = GPR55 agonists via beta-arrestin recruitment, primary screen, imaging, U2OS cells, beta-arrestin-GFP redistribution (AID 1961); U2OS GPR55 beta-arrestin-GFP redistribution imaging; higher % means a stronger effect; activation, % at 10 µM, or EC50 in µM where a hit was titrated; hit rate 0.048% among 290,000;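 active means activation above 40% with more than 50 cells counted in the well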;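 further: U2OS osteosarcoma cells stably expressing GPR55 and beta-arrestin-GFP; plate controls were DMSO negative control for no effect and LPI positive control for full effect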
GPR35 arrestin U2OS = GPR35 antagonists blocking zaprinast-driven arrestin recruitment, primary screen, imaging, U2OS, beta-arrestin-GFP, zaprinast agonist (AID 2058) | hit rate 0.052% among 290,000 | one-dose inhibition, % at 10 µM; IC50 in µM for titrated hits | U2OS GPR35 beta-arrestin-GFP translocation imaging, zaprinast antagonism; higher % means a stronger effect;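 active means inhibition of at least 50% with at least 30 cells and total cytoplasm GFP at most 10,000,000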
T cell HTS = T cell immune modulation candidate | 2C CD8+ T cell-vesicle binding, flow cytometry; hits give low values | calls only at 7 µM | hit rate 0.068% among 330,000 | AID 2052;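 active means response, share of CD8 T cells binding vesicles, and their 90th percentile fluorescence all below set limits, cut at about 80% in these data, passing the limit was not always enough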
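Incubation: binding step 1.5 h, 37 °C, antibody labelling 20 min, ice; system: murine 2C transgenic CD8+ T lymphocytes; technique: cytometric PE anti-B7-1 and Alexa647 anti-CD8 signals after 1% paraformaldehyde fixation; also added: QL9-charged Drosophila Ld/ICAM-1/B7-1 vesicles; control set: naked versus QL9-loaded vesicles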
GPR55 antagonists = inhibition of LPI-stimulated GPR55 beta-arrestin translocation – imaging, U2OS, beta-arrestin-GFP, LPI agonist, primary screen (AID 2013); U2OS GPR55 beta-arrestin-GFP translocation imaging, LPI antagonism; higher % means a stronger effect; hit rate 0.13% among 290,000; inhibition, % at 10 µM, or IC50 in µM where a hit was titrated;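 active means spots per cell inhibited over 60%, with over 100 cells counted and total cytoplasm intensity under 500,000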;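 further: U2OS cells stably carrying GPR55 and arrestin-GFP stimulated by 5 µM LPI near EC80; imaged beta-arrestin-GFP aggregate spots per cell after agonist stimulation; plate controls were LPI-stimulated DMSO wells for no effect and DMSO wells without LPI for full effect; some results filed as inactive read as strong as hits; confirmed hits need IC50 under 10 µM and bright autofluorescent wells are also inconclusive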
T cell HTS vesicle-bound % = recorded beside T cell HTS, whose call it bears; double positive events, %; measured here: CD8+ vesicle-bound cell fraction;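 binding gate set so that unloaded-vesicle control wells show 10% double positive cells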
NTR1 agonist cell count 20 µM = further read-out of NTR1 agonist, marked with its call; cell count; measured here: cell count, cytotoxicity flag
Active calls of the source: *; i = inactive; . = not tested or not shown. The list is partial; the hit share may differ from the screen's.

cpd	SMILES	T cell HTS vesicle-bound %	T cell HTS	GPR55 activation	PhoP inhibition	NTR1 agonist cell count 20 µM	GPR35 arrestin U2OS	NTR1 agonist	KOR agonists	West Nile virus CPE	GPR55 antagonists
1	CCN(CC)S(=O)(=O)c1cc(-c2nn(C)c(=O)c3ccccc23)ccc1C	56	i	-0.1%	2%	49	-12%	-0.3	7.7%	0.1%	-6%
2	Cc1ccc(NC(=O)c2ccc(S(=O)(=O)N3CCCCC3)cc2)cc1	26	i	-0.1%	2%	90	2%	2.7	2.2%	0.4%	12%
3	Clc1ccc(-c2ccnc(Oc3cc(Cl)ccc3Cl)n2)cc1	14	i	0.2%	8%	49	10%	11	-4.2%	-0.1%	8%
4	CCOc1ccccc1C(=O)N(Cc1cccs1)C1CCS(=O)(=O)C1 (configuration not stated)	60	i	-0.2%	0%	43	12%	0.1	-3.6%	-0.2%	-11%
5	O=C1CCCC2=C1C(c1ccc(Cl)cc1)C1C(=O)c3ccccc3C1=N2 (configuration not stated)	7	i	0.5%	6%	51	11%	2.2	2.7%	0.3%	18%
6	O=C(c1cccc(F)c1)N1C2C=CC(C2)C1(C(F)(F)F)C(F)(F)F (configuration not stated)	59	i	-0.2%	-2%	33	9%	3.6	6.9%	0.1%	0%
7	CCCCN(CCCC)c1nc(OC)nc(-n2nnc(C(C)=O)c2C)n1	31	i	-0.2%	3%	39	-2%	10	49%	-0.3%	-3%
8	Cc1ccc(S(=O)(=O)n2nc(C)c(Br)c2C)c(C)c1C	19	i	-0.1%	-5%	49	-22%	2.5	1.5%	0.0%	8%
9	CCSc1nnc(-c2ccncc2)o1	35	i	-0.1%	21%	71	-2%	2.6	4.6%	0.2%	5%
10	CN1CCc2c(c3ccccc3n2Cc2ccccc2)C1	24	i	0.3%	-7%	51	22%	-1.8	-0.1%	-0.3%	6%
11	CCN(CC)CCN1C(=O)C(=O)/C(=C(/O)c2cccc(OC)c2)C1c1ccccn1 (configuration not stated)	43	i	0.0%	0%	51	2%	-1.6	3.3%	-0.2%	3%
12	Cc1ccc(S(=O)(=O)Nc2nc(C)cc(NCCN)n2)cc1	44	i	-0.1%	0%	44	-2%	0.7	0.9%	-0.4%	4%
13	C=C(C)[C@H]1CC=C(C)/C(=N/NC(=O)CNc2ccccc2OC)C1	48	i	-0.1%	-7%	43	-3%	0.9	2.3%	.	3%
14	COc1ccc(S(=O)(=O)N2CCCN(CC(=O)Nc3ccc4c(c3)OCO4)CC2)cc1	25	i	-0.1%	15%	49	10%	0.8	-2.7%	.	-14%
15	COCCCNC(=O)CC(NS(=O)(=O)c1ccc(C)cc1)c1ccc(OC)cc1 (configuration not stated)	37	i	-0.1%	3%	51	-5%	-1.1	-4.3%	-0.2%	2%
16	Nc1c(Cl)ncnc1N1CCOCC1	5	i	0.2%	3%	51	17%	-0.2	2.6%	-0.2%	10%
17	COc1cccc(SCc2noc(C(=O)NCC3CCCO3)c2C(=O)O)c1 (configuration not stated)	27	i	-0.1%	-4%	97	10%	-2.1	-0.8%	0.1%	-2%
18	O=S(=O)(c1cccs1)N1CN(Cc2ccc(Cl)cc2)c2nc3ccccc3nc21	13	i	0.3%	-1%	47	1%	2.2	0.6%	-0.3%	-7%
19	COc1ccc(OC2C(=O)N(Cc3ccc4c(c3)OCO4)C2c2cccs2)cc1 (configuration not stated)	13	i	-0.3%	8%	50	-4%	6.1	1.0%	0.3%	6%
20	COC(=O)C1=C(C)N=C2SC(C#N)=C(N)N2C1c1ccc(OC)cc1 (configuration not stated)	17	i	-0.1%	-3%	46	2%	-0.7	3.4%	0.1%	10%
21	Cc1ccc(S(=O)(=O)N2CCN(c3nc(C)nc4sc5c(c34)CCC(C)C5)CC2)cc1 (configuration not stated)	.	.	-0.1%	-11%	.	10%	.	9.3%	0.6%	14%
22	COc1ccc(OC)c(NC(=O)C(CC(=O)O)NCc2ccco2)c1 (configuration not stated)	35	i	-2.3%	-1%	88	19%	-4.7	2.4%	0.1%	16%
23	COc1ccc(N2C(=O)CSC23CCC(C(C)(C)C)CC3)cc1 (configuration not stated)	12	i	-0.1%	-7%	52	-7%	7.0	0.5%	-0.7%	11%
24	O=C(c1cccs1)N1CCN(C(=O)C(c2ccccc2)c2ccccc2)CC1	37	i	-0.2%	-4%	100	3%	-1.5	3.9%	-0.8%	6%
25	CCOc1ccc(N=C2NC(=O)S/C2=C\c2ccc(O)cc2)cc1	63	i	-0.1%	7%	43	-12%	7.2	1.3%	0.0%	-17%
26	CCOc1ccc(NC(=O)c2nnn(CC(=O)Nc3ccccc3OC)c2N)cc1	26	i	0.3%	-3%	94	-6%	-5.3	0.9%	0.0%	6%
27	Cc1ccnn1CC(=O)N/N=C/c1ccco1	36	i	-0.1%	2%	96	8%	-2.1	5.5%	-0.3%	4%
28	CCCCn1nc2cc(C(=O)NCc3ccccc3)ccc2c1OCC	6	i	0.0%	0%	90	19%	-0.7	-0.8%	1.0%	14%
29	CCOC(=O)c1c(C)[nH]c(C)c1C(=O)COC(=O)c1cccc(S(=O)(=O)N(CC)CC)c1	60	i	-0.1%	0%	46	26%	1.0	1.7%	.	2%
30	CC(C)c1ccc2c(c1)C(c1ccc(N3CCOCC3)cc1)=NNC(c1cccs1)=N2	30	i	-0.1%	-3%	86	-4%	3.1	2.0%	1.1%	.
31	Cc1ccccc1OCC1Cn2c(nc3c2c(=O)[nH]c(=O)n3C)O1 (configuration not stated)	45	i	0.2%	4%	80	7%	3.3	-0.4%	-0.5%	-32%
32	Cc1ccc(NC(=O)N/C=C/c2ccc(Cl)cc2)cc1	58	i	0.0%	5%	40	-5%	-1.1	-2.5%	.	7%
33	NC(=O)C1(NC(=O)[C@@H]2CC3(CC(c4cccc(NC(=O)[C@@H]5CCC(=O)N5)c4)=NO3)CN2C(=O)Cc2ccc(Cl)cc2)CC1 (some centres not stated)	33	i	0.0%	35%	87	7%	5.3	2.6%	0.8%	1%
34	Cc1ccc(Nc2nnns2)cc1	46	i	-0.3%	-25%	51	13%	1.4	-3.0%	-0.2%	-2%
35	COC(=O)c1sc(=S)n(-c2ccccc2OC)c1N	67	i	-0.1%	-7%	81	13%	-0.9	2.7%	-0.6%	2%
36	CCC1CCCCN1CCCNC(=O)Cn1nc(-c2ccc(C)cc2)ccc1=O (configuration not stated)	38	i	-0.1%	5%	55	-8%	1.0	5.0%	-0.1%	18%
37	CCCOc1ccc(OC(=O)c2ccc(Br)o2)cc1	37	i	0.2%	8%	87	9%	1.3	12%	-0.5%	5%
38	CCOC(=O)/C=C1\NC(C)(C)Cc2cc(OC)c(O)cc21	28	i	-0.1%	-5%	54	6%	1.6	9.4%	-0.2%	5%
39	O=C(Nc1ccc([N+](=O)[O-])cc1)/C(=C/c1cccc([N+](=O)[O-])c1)NC(=O)C1CCCCC1	33	i	0.1%	18%	50	6%	1.1	2.3%	-0.3%	27%
40	Nc1nc2ccccc2nc1N1CCCC1	10	i	-0.2%	10%	53	1%	0.9	-2.8%	0.4%	9%
41	C=CCNC(=O)c1ccccc1Cl	17	i	0.3%	5%	58	-8%	-0.2	0.3%	0.5%	4%
42	Cc1ccc(-c2nc3c(cnn3-c3ccccc3)c(=O)o2)cc1	16	i	-0.2%	-6%	47	3%	7.2	2.1%	0.6%	9%
43	COCc1nnc(NC(=O)CSc2ccc(C)cc2)s1	13	i	0.3%	-7%	82	10%	0.2	0.4%	-0.4%	-10%
44	CC(=O)NC(=S)Nc1ccc(-c2nc3ccc(C)cc3s2)cc1	60	i	-0.1%	-5%	50	4%	-1.0	-0.2%	0.3%	27%
45	CCCCOC(=O)Nc1cccc(C(=O)OCC)c1	54	i	-0.1%	1%	57	10%	2.0	0.1%	-0.2%	20%
46	CNC(=O)/C(C#N)=c1\s/c(=C/C(=O)OC)c(=O)n1-c1ccccc1	51	i	0.5%	-11%	83	-3%	-1.0	3.5%	0.1%	4%
47	CSc1ccc(S(=O)(=O)NCc2ccccc2Cl)cc1	16	i	0.3%	0%	58	15%	2.8	0.1%	-0.4%	5%
48	CCCCC(=O)Nc1cc(C(=O)NCCc2ccccc2)ccc1Cl	30	i	-0.1%	3%	57	-11%	-1.1	-2.5%	0.0%	29%
49	O=C(Cn1c(=O)oc2ccccc21)NC(=O)NCc1ccccc1	42	i	0.0%	0%	32	-3%	-0.8	2.9%	-0.1%	4%
50	Cc1ccc(-c2noc(CN(C(=O)C34CC5CC(CC(C5)C3)C4)C(C)C)n2)cc1	48	i	0.2%	4%	65	-3%	1.6	1.5%	-0.5%	21%
51	COc1ccc(Oc2nc3c(c(=O)n(C)c(=O)n3C)n2Cc2ccccc2)cc1	57	i	-0.2%	-2%	56	-9%	5.9	4.9%	-0.4%	3%
52	CCN(CC(=O)Nc1ccc(N2CCOCC2)cc1)Cc1nc2ccccc2c(=O)[nH]1	45	i	-0.1%	30%	55	3%	-0.3	0.7%	-0.1%	1%
53	O=C(CCCN1C(=O)C2C3C=CC(C3)C2C1=O)N1CCN(c2ccccc2)CC1 (configuration not stated)	35	i	-0.1%	0%	80	3%	-1.1	3.1%	.	3%
54	COc1ccc(/C=N/N=C/c2ccc(OC)c(O)c2)cc1O	45	i	-0.1%	-1%	94	-10%	-0.7	4.5%	0.4%	-6%
55	Cc1ccc(-n2c(=O)cc(N3CCC(C)CC3)[nH]c2=O)cc1	21	i	-0.1%	-1%	57	13%	-0.1	2.5%	0.3%	7%
56	CCNC(=S)NNC(=O)c1cccs1	24	i	0.0%	-3%	47	-2%	-0.3	2.9%	0.9%	-6%
57	Cc1cc[n+](CC(=O)Nc2cc(C(F)(F)F)ccc2Cl)cc1	19	i	0.2%	8%	70	-6%	1.0	2.9%	0.3%	-6%
58	CCCOc1ccc(C2C(C(=O)c3ccco3)=C(O)C(=O)N2CCN2CCOCC2)cc1OC (configuration not stated)	58	i	-0.1%	3%	88	-5%	-1.0	-1.9%	.	-3%

Screen by screen, as entered above:
Nos. 29 to 38 in NTR1 agonist read 1.0, 3.1, 3.3, -1.1, 5.3, 1.4, -0.9, 1.0, 1.3, 1.6
Nos. 29 to 38 in GPR55 activation read -0.1%, -0.1%, 0.2%, 0.0%, 0.0%, -0.3%, -0.1%, -0.1%, 0.2%, -0.1%
Nos. 29 to 38 in GPR55 antagonists read 2%, ., -32%, 7%, 1%, -2%, 2%, 18%, 5%, 5%

Compound activity (PubChem)
